MT1-MMP act inh: blockers of MT1-MMP proenzyme processing, primary screen, HT1080 RFP-PRO-GFP cells, GFP/RFP fluorescence; GFP/RFP ratio change, % at 20 µM; GFP/RFP ratio fluorescence, overnight; percent of plate control window, DMSO zero; 360,000 tested, 0.061% active; Matrix metalloproteinase-14 (Homo sapiens), P50281;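 active = GFP/RFP ratio change of at least 30% with cell ATP level not reduced by more than half and red fluorescence within 50% of control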; also: strong numbers were not always called active
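Assay system – RFP-PRO-GFP reporter HT1080 cells · Compound dosing – single dose of 20 µM compound, 1% DMSO final · Incubation – overnight compound exposure at 37 °C · Measure – GFP/RFP fluorescence ratio · Benchmarks – DMSO wells and RFP-L50D-GFP cells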
CSC inhib: cancer stem cell viability inhibitors, primary screen, luminescence; cancer stem cell-like cells viability; inhibition, % at 7.5 µM; 300,000 tested, 1.1% active; AID 2717, 2010;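 active = mean at 75% or more and at least half the replicates too; inconclusive = mean and replicates disagree; tested in HMLE shEcad cells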;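 also: 0% = median of negative and 100% = median of positive control wells; the first replicate is given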
Rce1 inhib: yeast Rce1p protease inhibitors, primary screen, biochemical, fluorescence, cell-free homogeneous. CAAX prenyl protease 2 (Saccharomyces cerevisiae (strain ATCC 204508 / S288c)), Q03530. yeast membranes, quenched prenylated peptide cleavage fluorescence. calls only. 290,000 tested, 0.27% active;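 active = fall in fluorescence gain of 50% or more versus controls, with final raw signal at or below 3038400; inconclusive = same 50% fall but final raw signal above 3038400; inactive = fall in fluorescence gain under 50%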;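 also: plate controls were neutral control wells for no effect and wells lacking membranes for full effect; tested at 10 µM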
Target sequence (Q03530 whole entry, looked up): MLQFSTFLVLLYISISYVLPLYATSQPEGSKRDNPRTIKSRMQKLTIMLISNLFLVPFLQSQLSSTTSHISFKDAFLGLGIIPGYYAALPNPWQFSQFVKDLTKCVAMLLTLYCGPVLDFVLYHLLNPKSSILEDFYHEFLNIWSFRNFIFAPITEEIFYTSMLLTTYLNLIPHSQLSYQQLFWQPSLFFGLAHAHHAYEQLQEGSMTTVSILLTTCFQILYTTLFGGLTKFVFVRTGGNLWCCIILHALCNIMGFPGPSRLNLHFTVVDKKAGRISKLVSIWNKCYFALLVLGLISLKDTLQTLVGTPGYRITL
HIV Env fusion: inhibitors of HIV-1 Env-driven cell-cell fusion, primary screen, HeLa-JRFL effector, CEM21 target cells, luciferase. 360,000 tested, 1.1% active. inhibition, % at 12.3 µM;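 active = mean replicate inhibition score of at least 50 and every replicate individually at or above 50; inconclusive = only one of the two criteria met; inactive = mean below 50 and not all replicates reaching 50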;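 also: 0% = plate neutral controls and 100% = maraviroc near 300 nM; one replicate is shown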
PABP FP inh: PABP poly(A) RNA binding inhibitors, primary screen, biochemical, fluorescence polarization, uHTS. Polyadenylate-binding protein 1 (Homo sapiens), P11940. inhibition, % at 35 µM. 290,000 tested, 1% active. AID 2014, 2009;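 active = 50% or more with normal probe brightness, or confirmed in later tests; inconclusive = above 50% with abnormal brightness, or retests that disagree; inactive = below 50% or failed in later tests; about a fifth of its hits are not listed in these tables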;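 also: calls also rest on retests at 20 µM and on dose response follow-up; controls were probe without protein and protein plus probe with vehicle; some compounds called inactive have numbers as strong as hits; many hits fall short of the cut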
eIF4H inh: human eIF4H binding inhibitors, primary screen, translation initiation inhibitor project, biochemical, uHTS, fluorescence polarization; 290,000 tested, 0.94% active; AID 2012, 2009; eIF4H fluorescence polarization binding assay; Eukaryotic translation initiation factor 4H (Homo sapiens), Q15056; inhibition, % at 35 µM;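 active = 50% or more with normal probe brightness, or confirmed in later tests; inconclusive = above 50% with abnormal brightness, or retests that disagree; inactive = below 50% or failed in later tests; about a fifth of its hits are not listed in these tables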;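 also: calls also rest on retests at 20 µM and on dose response follow-up; 0% = protein and probe with vehicle and 100% = probe without protein; strong numbers were not always called active; many hits fall short of the cut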
UUG fidelity: modulators of yeast start codon fidelity, primary screen, whole organism, S. cerevisiae, single point, plate reader. S. cerevisiae UUG-firefly luciferase reporter, luminescence/redox ratio. AID 602363, 2012. activity score, % at 18.7 µM. 350,000 tested, 0.13% active;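 active = replicate mean at a twofold rise or more, about +100% in these data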;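 also: firefly luciferase made from a UUG start codon reports start codon fidelity; reporter light over untreated wells divided by growth signal over untreated wells; some hits fall short of that in this replicate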
eIF4H inh retest: recorded beside eIF4H inh, whose call it bears; inhibition, %; compound at 20 µM; confirmation average;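 mean of two retest wells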
PABP FP inh retest: second read-out of PABP FP inh, no call of its own (marks repeat the call); inhibition, %; compound at 20 µM; confirmation repeats;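 mean of two retest wells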
MT1-MMP act inh RFP: recorded beside MT1-MMP act inh, whose call it bears; RFP signal change, %; measured here: RFP expression control read;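 0 = vehicle wells; hits needed this value within 50% of zero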
* = called active by the depositor; i = inactive; ? = inconclusive; · = no result given; + = active, no number; [ ] = remark or other dose.

SMILES	MT1-MMP act inh	MT1-MMP act inh RFP	CSC inhib	Rce1 inhib	HIV Env fusion	PABP FP inh	eIF4H inh	UUG fidelity	others
CCOCC(=O)Nc1ccc(S(=O)(=O)Nc2nccs2)cc1	-3	0	-13	i	-2	-12	-13	-19
COC(=O)c1ccc(NS(=O)(=O)c2cc3c4c(c2)C(C)C(=O)N4CCC3)cc1 (configuration not stated)	-2	1	4	i	-9	·	·	-8
COc1ccc(Cn2nnnc2CN(Cc2cc3ccc(C)cc3[nH]c2=O)C2CCCC2)cc1	-3	-7	19	i	·	1	-14	-1
O=C(NCCOc1ccccc1F)C1CC(=O)N(Cc2ccccc2)C1 (configuration not stated)	1	0	-18	·	10	·	·	-10
CC1(C)CC(=O)C2=C(C1)NC(=S)C(C#N)C21CCCCC1 (configuration not stated)	4	-1	-11	i	23	19	-10	110*
O=C(NC1CCCCC1)C(c1cccs1)N(Cc1cccs1)C(=O)c1ccco1 (configuration not stated)	-2	-1	13	i	84*	-10	-5	-5
O=c1cc(N2CCCCC2)c(-c2ccccc2)nn1Cc1ccccc1Cl	-4	-14	-6	i	·	1	3	-12
O=C(O)c1nc2nc(Cl)c(Cl)nc2[nH]1	2	5	12	i	-10	0	9	·
Cc1cc(C(=O)Nc2ccc(N3CCOCC3)cc2)c2ccccc2n1	-1	5	1	i	-11	-11	-10	-5
COc1ccccc1C1=NN(C2=NN=C(N)Cc3ncnn32)C(O)(C(F)(F)F)C1 (configuration not stated)	2	1	-5	+	1	-8	9	·
O=C(CSc1n[nH]c(=O)[nH]c1=O)c1ccccc1[N+](=O)[O-]	0	3	-2	·	-9	-7	1	-3
CCOC(=O)c1c(CS(=O)(=O)c2ccccc2)n(C)c2cc(Br)c(O)c(CN(C)C)c12	2	0	-3	i	67*	20	19	·
COc1ccc(/C=C/C(=O)OCC(=O)NC2CCCC2)cc1	2	3	·	·	0	·	·	-22
Nc1nc2c3ccccc3nc(Cc3ccccc3)n2n1	7	1	-15	i	1	-4	-2	-22
CN(C)c1ccc(-c2ccnc3c2CC(C)(C(=O)NCCc2ccccc2)O3)cc1 (configuration not stated)	-1	0	·	·	-24	·	·	-10
CCN=C(Nc1ccc2c(c1)OCO2)SC1CC(=O)N(c2ccc(OC)cc2)C1=O (configuration not stated)	4	1	-7	i	-1	-4	-4	·
COc1ccc(C(=O)/C=C/C(=O)N(CC(=O)NC2CCCCC2)Cc2ccccc2OC)c(O)c1	-6	-7	·	i	-98	-3	-7	·
Cc1occc1-c1nc(-c2ccncc2)no1	5	6	-10	i	-98	-8	-3	-19
CCCN(CCC)c1nc2c(C)cccn2c(=O)c1/C=C1/SC(=S)N(Cc2ccco2)C1=O	-2	51	·	i	·	?	?	8
Cc1ccc(CN2CCN(Cc3cnc(C)s3)CC2CCO)cc1 (configuration not stated)	-1	-2	9	i	4	-1	3	·
C=CCn1c(SCC(=O)NC2CCCCC2)nnc1-c1cccnc1	2	5	0	i	-5	3	-2	-13
CCn1cc(C(=O)OCC(=O)c2cc(C)n(-c3ccccc3)c2C)c(=O)c2ccc(C)nc21	2	4	11	i	·	15	-1	·
Cc1cccc(-c2noc(CCC(=O)NCc3ccccc3)n2)c1	2	1	13	i	-63	3	3	-11
Cc1c(C(=O)Nc2c(C)n(C)n(-c3ccccc3)c2=O)oc2ccc(Cl)cc12	2	-2	2	i	-8	4	-4	-11
O=C(CCS(=O)(=O)c1cccc2nonc12)Nc1ccc(Br)cc1	4	6	-10	i	4	11	-5	-13
COc1ccc(NS(=O)(=O)c2cc(NC(=O)c3cncc(Br)c3)ccc2OC)cc1	-5	-11	-11	·	33	·	·	5
CCC[N+]1(CC#CC(O)(c2ccccc2)C2CCCCC2)CCCCC1 (configuration not stated)	1	0	3	i	-27	12	6	·
COC(=O)C[C@@H]1C[C@H]2c3cc(N(C)C)ccc3O[C@H]2[C@H](CO)O1	1	7	·	·	6[16.7 µM]	·	·	-16
O=C(Nc1ccc(O)cc1C(=O)O)c1ccc(NC(=O)c2ccco2)cc1	1	6	1	·	3	·	·	2
Cc1cc(C)c(C)c(OCC(=O)NCCN(C)C)c1	3	-1	0	i	·	-8	-4	-18
CC1CN(C(=O)c2nn(C)cc2[N+](=O)[O-])CC(C)O1 (configuration not stated)	3	7	-6	i	·	8	1	-6
O=C1NC(=Nc2ccccc2)SC1Cc1cccc(Cl)c1Cl (configuration not stated)	1	0	17	i	-32	6	-4	·
COc1ccc(-c2csc(C(C)(O)c3cccnc3)n2)cn1 (configuration not stated)	-2	-3	·	·	11	·	·	-19
CC(=O)c1cccc(Oc2ncccn2)c1	-1	3	8	i	10	-2	-10	-12
COC(=O)c1ccsc1NC(=O)CCS(=O)(=O)c1ccc(Cl)cc1	-4	1	5	i	5	·	·	-20
CCCOc1ccc(C2c3c(oc4ccccc4c3=O)C(=O)N2CCN(CC)CC)cc1OC (configuration not stated)	-1	3	-17	i	·	2	-4	4
Cc1c(NS(=O)(=O)c2cccc(C(=O)NCc3ccc(Cl)cc3)c2)c(=O)n(-c2ccccc2)n1C	-2	-2	8	·	-66	-11	0	-14
COc1ccccc1CNc1cc(-c2ccccc2)ccc1OC	-4	-4	-11	i	·	-8	6	·
COC(=O)c1c(-c2ccccc2)nn(-c2ccccc2)c1C(=O)OC	-1	-2	13	i	-15	-7	5	12
Cc1ccc(-c2noc(C3CCN(S(C)(=O)=O)CC3)n2)o1	1	3	-8	i	-46	1	2	-2
Cc1ccccc1-c1csc(C(C)(O)c2cccnc2)n1 (configuration not stated)	-3	-4	·	·	6	·	·	-3
Cc1cc(=O)[nH]c(SCC(=O)Nc2c(C)n(C)n(-c3ccccc3)c2=O)c1C#N	-2	-3	-13	·	0	·	·	-5
Cc1nnc(NC(=O)CCC(=O)N2CCN(CCOc3cccc4ccccc34)CC2)s1	6	-1	-20	i	23	2	-5	-6
CN1C(=S)SC(N(O)C=C2C=CC(=O)C=C2)C1(C)C (configuration not stated)	-3	1	-18	i	·	4	-4	-20
Cc1nn(CC(=O)NCC2CCCO2)c(=O)c2ccccc12 (configuration not stated)	0	-2	5	i	·	-3	-3	-11
O=C(NCCS(=O)(=O)N1CCN(c2cccc(Cl)c2)CC1)c1cc(=O)c2ccccc2o1	-3	-6	4	i	0	-3	-6	-8
O=C(CN1C(=O)C2(OCCO2)c2ccccc21)c1ccc(F)cc1	2	4	-14	i	6	-1	-21	1
CC(=O)Nc1nnc(S(=O)(=O)N2CCN(c3ccc(Cl)cc3[N+](=O)[O-])CC2)s1	2	-1	-3	i	-1	-1	-12	2
O=C(NC1CCCC1)C(c1c(F)cccc1Cl)N(C(=O)c1csnn1)C1CC1 (configuration not stated)	4	6	-7	·	4	8	-4	-3
Cn1nc(-c2ccccc2)cc1NC(=O)[C@@H]1O[C@H](CO)[C@H](O)[C@H](O)[C@H]1O	2	5	·	·	-4	·	·	-10
COc1ccccc1C1CC(c2cccs2)=NN1C(=O)CCC(=O)O (configuration not stated)	-2	4	0	i	-3	-3	-12	-2
Cc1noc(C)c1CSCC(=O)N(CCC(C)C)c1c(N)n(Cc2ccccc2)c(=O)[nH]c1=O	-3	-4	1	i	-5	-2	-15	8
CN(C)/C=N/c1cc(=O)n(C)c(=O)n1CC1CC1	0	4	3	i	5	71	6	-17	eIF4H inh retest=-11;PABP FP inh retest=3
CCCCc1cc(=O)oc2cc(OCC(=O)NCc3ccccn3)c(Cl)cc12	-1	0	-1	i	3	0	7	-16
CCOC(=O)c1ccc(NC(=O)c2c(NC(=O)CCC(=O)O)sc3c2CCCCC3)cc1	-27	10	0	i	7	21	45	·
COc1cccc(C2=Nc3cccc4cccc(c34)N2)c1	37*	2.9*	-2	i	-19	-2	9	-1
O=C(Nc1ccccc1)N(CCN1CCOCC1)Cc1cccc(Cl)c1	-2	-5	-16	i	·	2	-9	·
O=C(C1CCN(S(=O)(=O)Cc2ccccc2)CC1)N1CCN(c2ncccn2)CC1	5	1	·	i	-3	2	6	-15
COc1ccc(N2C(=O)CN(Cc3cc(OC)c(OC)c(OC)c3)C2=S)cc1	-5	-10	13	i	19	23	-1	-21
Cc1cc(C(=O)N/N=C/C=C/c2ccc(Br)cc2)n[nH]1	7	2	-2	i	9	-16	16	-2

Continuation.
SMILES	MT1-MMP act inh	MT1-MMP act inh RFP	CSC inhib	Rce1 inhib	HIV Env fusion	PABP FP inh	eIF4H inh	UUG fidelity	others
COc1ccc(N2CCN(C(=O)CN3C(=O)NC(C)(c4ccc5ccccc5c4)C3=O)CC2)cc1 (configuration not stated)	4	-23	·	·	0	·	·	31
COCCN(Cc1cc2cc(C)c(C)cc2nc1Cl)C(=O)Nc1ccccc1	-11	-2	10	i	·	4	14	-3
O=C(O)CCC1(C(=O)O)OCCc2ccccc21 (configuration not stated)	-2	-1	1	i	·	27	-17	-1
O=Cc1ccc(OCc2ccc3c(c2)OCO3)cc1	-1	4	4	i	-19	-3	4	-31
Fc1ccc(CN2CCN(C(c3ccccc3)c3ccccc3)CC2)cc1	-3	-5	12	i	10	10	7	-6
CCCCCc1ccc(-c2cn(Cc3ccc(C)cc3)nn2)cc1	0	-2	-5	i	·	7	2	-20
O=C(O)CSCC(=O)NCc1cccc(C(F)(F)F)c1	-2	0	-13	i	15	8	-4	·
Cc1cccc(C(=O)Nc2cc(NC(=O)c3cccs3)ccc2C)c1	1	-2	-9	·	25	-3	-14	-10
CCN(CC)S(=O)(=O)c1ccc(N/N=C/c2ccc(O)cc2O)nc1	-8	-14	112*	i	23	0	16	·
Cn1c(Cn2c(=O)sc3ccccc32)nnc1SCC(=O)N1CCc2ccccc21	-3	1	-14	·	14	6	1	-3
CC(=O)c1ccc(N2CCN(C(=O)c3cc(-c4cccnc4)nc4ccc(Br)cc34)CC2)cc1	-3	-3	53	i	7	-18	-7	-20
CC(C)(C)NC(=O)C1CCN(C(=O)c2ccco2)CC1	4	8	-9	i	8	2	5	-13
Cc1ccc(C)c(OC(=O)c2cccc(S(=O)(=O)N3CCN(C)CC3)c2)c1	2	-2	-7	i	-7	37	1	15
COc1ccc(-c2cc(C(=O)Nc3ccccc3SC)no2)cc1OC	2	-1	-6	i	-57	-1	-7	-6
Cc1ccc(F)cc1NC(=O)Nc1cc(C(C)(C)C)nn1C	3	5	-15	i	-1	16	-4	-18
Cc1ccc2ncc([N+](=O)[O-])n2c1	-2	1	-3	i	12	-13	2	·
COC(=O)C(Cc1ccccc1)NC(=O)CCCC(=O)NCc1cccc(OC)c1 (configuration not stated)	-6	0	0	i	3	-8	-9	-20

Random excerpt: 2 compounds from above.
SMILES	MT1-MMP act inh	MT1-MMP act inh RFP	CSC inhib	Rce1 inhib	HIV Env fusion	PABP FP inh	eIF4H inh	UUG fidelity	others
Cc1ccc(C)c(OC(=O)c2cccc(S(=O)(=O)N3CCN(C)CC3)c2)c1	2	-2	-7	i	-7	37	1	15
COC(=O)C(Cc1ccccc1)NC(=O)CCCC(=O)NCc1cccc(OC)c1 (configuration not stated)	-6	0	0	i	3	-8	-9	-20

Some of the compounds tested (hit frequency here may not be typical).
